# Source: PubChem
# GLA inh pH 4.5: qHTS Assay for Inhibitors of Human alpha-Galactosidase at pH 4.5 | activity change, negative = inhibition, % at 105 µM | purified enzyme, 4-MU-alpha-Gal fluorescence, pH 4.5 | 230,000 tested, under 10 active; inconclusive = small, poorly fitted or top-dose-only inhibition, or a rising curve; inactive = flat fitted curve, though single readings scatter; no compound was filed as active;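 also: 0% = full activity with enzyme and -100% = basal without enzyme; dose as in the result columns while the protocol names 77 µM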
# Rango release inh: qHTS Assay for Inhibitors of RanGTP induced Rango (Ran-regulated importin-beta cargo) - Importin beta complex dissociation; Biochemical FRET Rango-importin beta, RanGTP-induced dissociation; Snurportin-1 (Homo sapiens) + GTP-binding nuclear protein Ran (Homo sapiens) + Importin …; Potency, µM (titrated, usually from 46.1 µM), inactives show top-dose activity change, negative = inhibition; AID 540253, 2011; 340,000 tested, 0.071% active; active means falling FRET ratio curve, often poorly fitted, with flat reads before Ran was added; inconclusive means other falling curves, or compound fluorescence or quenching; inactive means flat or rising ratio curve;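 also: potency is read from the fitted curve at half-maximal effect; % of control where 0% means no effect; nearly all actives have a fitted effect of over 45% in size; -100% = wells without RanGTP and RCC1; the record marks most hits as doubtful in a second field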
#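 Compounds sat 5 min at room temperature with 0.1 uM Rango biosensor plus 0.25 uM importin beta, then FRET pre-read. RanGTP-RCC1 (0.6 uM Ran, 2mM GTP, 0.2 uM RCC1) added for 45 min, and the CFP/YFP post-read measured blocked complex dissociation.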
# miR-21 reporter: qHTS Assay for Modulators of miRNAs and/orActivators of miR-21; HeLa miR-21 FLuc reporter, luciferase, 48 h; Potency, µM (titrated, usually from 38.3 µM), for the others: at the highest dose reporter change, positive = more light; 340,000 tested, under 10 active; AID 2288, 2010; active = well fitted rising curve with a large enough effect; inconclusive = small, poorly fitted or top-dose-only effect; inactive = no such curve, though single readings can be large or run the other way;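 also: % of control where 0% means no effect; miR-21 action dims this reporter so a rising signal means less miR-21 action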
#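 Using DMEM plus 10% FBS, HeLa miR-21-FLuc cells are incubated with test compounds (final up to about 40uM) for 48 hours; firefly luciferase signal is then imaged following reagent-mediated lysis.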
# Rango-impB inh: qHTS Assay for Inhibitors of Rango (Ran-regulated importin-beta cargo) - Importin beta complex formation; 340,000 tested, 0.031% active; Rango CFP/YFP FRET sensor + importin beta, 45 min; Potency, µM (series often up to 92.2 µM), for the others: top-dose inhibition of complex formation; Importin subunit beta-1 (Homo sapiens), Q14974; active = rising FRET ratio curve, often small or poorly fitted; inconclusive = mostly compound fluorescence or quenching in the first reads; inactive = flat curves in all reads;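 also: potency is read from the fitted curve at half-maximal effect; 0% = DMSO wells and 100% = buffer wells lacking importin beta; nearly all actives have a fitted effect of over 15% in size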
# Target sequence (Q14974 whole entry, looked up): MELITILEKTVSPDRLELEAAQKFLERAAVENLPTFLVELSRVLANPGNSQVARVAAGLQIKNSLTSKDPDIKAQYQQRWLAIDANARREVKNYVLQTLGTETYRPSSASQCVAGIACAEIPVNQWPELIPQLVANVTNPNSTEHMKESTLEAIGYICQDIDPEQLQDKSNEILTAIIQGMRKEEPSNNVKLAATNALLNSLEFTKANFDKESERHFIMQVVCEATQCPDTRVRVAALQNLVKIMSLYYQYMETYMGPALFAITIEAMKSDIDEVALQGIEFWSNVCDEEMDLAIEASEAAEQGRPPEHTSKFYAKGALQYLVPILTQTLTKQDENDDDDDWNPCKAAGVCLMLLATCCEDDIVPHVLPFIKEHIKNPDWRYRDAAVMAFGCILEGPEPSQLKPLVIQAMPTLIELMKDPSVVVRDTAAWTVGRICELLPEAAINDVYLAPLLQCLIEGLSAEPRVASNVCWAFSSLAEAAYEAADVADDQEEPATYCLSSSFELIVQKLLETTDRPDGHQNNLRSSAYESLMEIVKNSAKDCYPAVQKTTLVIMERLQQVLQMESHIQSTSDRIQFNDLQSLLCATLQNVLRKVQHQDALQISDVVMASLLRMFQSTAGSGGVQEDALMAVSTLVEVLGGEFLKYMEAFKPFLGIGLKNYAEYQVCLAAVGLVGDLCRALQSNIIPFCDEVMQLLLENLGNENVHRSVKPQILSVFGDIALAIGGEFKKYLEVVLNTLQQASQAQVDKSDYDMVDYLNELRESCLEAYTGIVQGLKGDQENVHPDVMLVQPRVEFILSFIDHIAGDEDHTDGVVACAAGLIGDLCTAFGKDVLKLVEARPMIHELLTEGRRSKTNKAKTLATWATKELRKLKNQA
#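 FRET biosensor (snurportin 1 IBB flanked by EYFP and cerulean), 50 nM, with compound 5 min, then 0.125 microM importin beta in PBS, 1 mM DTT, 0.02% Tween-20, 0.1% BSA. CFP/YFP ratio read after 45 min at room temperature; pre-read flags interference.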
# Starred values were filed as active, the others as inactive; ? = inconclusive; . = not tested or not shown; & = joins results of further samples. An excerpt. The share of hits here may be higher or lower than overall.
canonical_smiles | miR-21 reporter | Rango-impB inh | GLA inh pH 4.5 | Rango release inh
O=C(c1cccc(S(=O)(=O)NCc2ccccc2)c1)N1CCN(c2ccc(F)cc2)CC1 | . | 3.9% | . | 8%
COc1ccc2[nH]cc(C(=O)CN(C)CCc3ccc(OC)c(OC)c3)c2c1 | 0% | 4.6% | -2 | 1%
O=C1NC(c2ccccc2)=NC1(NS(=O)(=O)c1ccccc1)C(F)(F)F (stereo not given) | 2% | 0.3% | 4 | -12%
O=C(NCC(c1cccnc1)N1CCN(c2ccccc2F)CC1)c1ccco1 (stereo not given) | 5% | -1.4% | 6 | -4%
C=CCNC(=O)c1cc(Cl)cc(Cl)c1 | -7% | -1.4% | 5 | 1%
CC(NC(=O)c1ccccc1)C(=O)N/N=C/c1ccc(O)cc1 (stereo not given) | -3% | -3.7% | 4 | -7%
Cc1cccc(NC(=O)/C=C/c2ccc(Cl)cc2)n1 | 11% | 2.0% | -13 | 11%
CCOc1cc(C(=O)OCC(=O)NCc2ccco2)cc(OCC)c1OCC | -2% | 4.5% | -13 | -15%
COc1ccc(CSc2nncn2C)cc1[N+](=O)[O-] | -9% | -5.3% | 1 | 8%
N#C/C(=C\c1cccnc1)C(=O)Nc1ccccc1[N+](=O)[O-] | 6% | -1.6% | . | -21%
CCCS(=O)(=O)N1CCN=C1SCc1cccc(C)c1 | -2% | -3.5% | -2 | 8%
O=C(NCCS(=O)(=O)N1CCN(c2ccccc2)CC1)C1CC1 | . | 3.5% | . | -7%
O=C(O)C(Cc1ccccc1)N1C(=O)/C(=C/c2ccccc2)SC1=S (stereo not given) | -3% | 2.9% | -6 | -9%
Cc1ccc(C)c(NC(=S)c2ccc3ccccc3n2)c1 | -65% | -3.4% | 0 | -3%
COc1cc(NC(=O)CNC(=O)Cn2c(C)cc3ccccc3c2=O)cc(OC)c1OC | 1% | 0.0% | . | -10%
Cc1nc(N)nc(Nc2ccc(Cl)cc2)c1Br | -28% | 5.5% | 1 | 10%
O=C(COc1cc2oc(=O)c3c(c2cc1Cl)CCCC3)NCc1cccnc1 | 0% | -1.7% | . | 15%
O=C(COC(=O)c1cncc(Br)c1)NCc1cccs1 | . | -1.1% | . | -18%
c1ccc(-n2nnnc2-c2cccnc2)cc1 | -2% | 0.2% | 1 | 8%
CCOC(=O)c1c(C)[nH]c(C(=O)COC(=O)C(C)N2C(=O)C3CCCCC3C2=O)c1C (stereo not given) | -2% | -0.4% | -2 | 1%
O=C(CCCCCNC(=S)Nc1ccc(Cl)cc1)C[N+](=O)[O-] | -8% | -1.5% | 8 | 1%
CCN(C(=O)c1ccc(Cl)c([N+](=O)[O-])c1)c1ccccc1 | 1% | -4.4% | 19 | 14%
Cc1ccsc1C(=O)N/N=C/C=C/c1ccccc1[N+](=O)[O-] | -40% | -1.7% | -7 | -9%
COC(=O)c1ccc(NC(=O)C2CCCO2)cc1 (stereo not given) | -26% | 7.1% | -5 | -4%
FC(F)C(F)(F)c1cc(-c2ccccc2)n[nH]1 | -36% | 0.3% | -2 | -17%
CCCCN1C(=O)C(=O)N(CC(=O)Nc2sc(C)c(C)c2C(=O)OC)C1=O | . | 0.2% | . | -3%
O=C(Cc1cccc2ccccc12)NC(=S)Nc1cccc(C(=O)O)c1 | -11% | -1.5% | -1 | -5%
Nc1ccccc1SCC1CSc2nc3ccccc3c(=O)n21 (stereo not given) | -2% | 1.9% | 0 | -6%
Cc1ncc(CN=Cc2ccc(Cl)cc2)c(N)n1 | -5% | -0.1% | -7 | -4%
CCn1cc(C(=O)O)c(=O)c2cc(F)c(N/N=C/c3ccccc3[N+](=O)[O-])cc21 | -1% | 2.8% | -6 | 1%
CCOC(=O)Cc1csc(NC(=O)Cc2ccc(C)cc2)n1 | -1% | -0.9% | 6 | 3%
O=C(NCC12CC3CC(CC(C3)C1)C2)c1cc2n(n1)C(C(F)(F)F)CC(c1ccco1)N2 (stereo not given) | 3% | 1.1% | 6 | -1%
CCOC(=O)N1CCN(C(=O)CSCC(=O)Nc2nc(-c3ccc(OC)cc3)cs2)CC1 | -18% | 2.5% | -2 | -3%
CC(C)(C)NC(=O)/C=C/c1cccs1 | -14% | 0.0% | -5 | -5%
O=C(O)CCNC(=O)OCC1c2ccccc2-c2ccccc21 | 0% | -0.3% | . | 3%
NNC(=O)c1ccc(Cn2cc(Cl)cn2)o1 | -15% | 2.8% | 0 | 7%
Cc1ccc(NC(=O)CCCc2nc3ccccc3c(=O)[nH]2)c(Cl)c1 | . | 3.9% | . | -3%
CCOc1cccc(N2CCN(CCNC(=O)Nc3ccc(C)cc3)CC2)c1C | 1% | -2.2% | . | -8%
O=C(CSc1cccc[n+]1[O-])Nc1ccc(N2CCOCC2)cc1 | 4% | . | 1 | .
Cc1nc2cc(C(=O)OCC(=O)NC34CC5CC(CC(C5)C3)C4)ccc2n1-c1ccccc1 | -5% | -0.6% | -14 | -3%
CCN(CC)S(=O)(=O)c1cccc(C(=O)/C=C2/N(C)c3ccccc3C2(C)C)c1 | 21% | ? | -12 | ?
CCOC(=O)CN1C(=O)N[C@@H](c2ccc(Br)cc2)C(C(=O)OC)=C1C | -2% | 4.1% | 1&5 | ?
N#Cc1c(-c2ccccc2)c(-c2ccccc2)nn(CC(=O)NNC(=O)Nc2ccc(Cl)cc2)c1=O | 20% | 0.7% | -8 | 7%
O=c1c2c(nc3nc(NCc4cccc(Cl)c4)[nH]n13)CCC2 | 4% | 1.4% | -5 | 20%
Cc1cccc(C(=O)NC(=S)Nc2ccc3[nH]c(=O)[nH]c3c2)c1 | -8% | -0.3% | 1 | -4%
O=S(=O)(c1cccs1)N1CCN(CC(O)COc2cc(Cl)ccc2Cl)CC1 (stereo not given) | ? | -2.3% | -3 | 0%
CCSc1nnc(NC(=O)c2ccccn2)s1 | 10% | ? | 3 | -27%
Cn1ncc2c(NNC(=O)Cc3ccccc3)ncnc21 | -15% | -1.6% | -1 | 14%
O=C(Nc1cccc(-c2nn[nH]n2)c1)c1csc2c1CCCC2 | -9% | 1.7% | . | -15%
O=C1NC(Nc2nc3ccccc3s2)(C(F)(F)F)C(=O)N1C1CCCCC1 (stereo not given) | ? | 0.7% | -2 | 9%
Cc1ccc(CNC(=O)c2ccc(Cn3nc(C)c(Cl)c3C)o2)cc1 | -4% | -1.5% | -4 | -8%
O=C(COc1ccccc1)N=C1SC2CS(=O)(=O)CC2N1c1ccccc1F (stereo not given) | 2% | 12% | . | -14%
CCN(CC)c1ccc(NC(=O)CCS(=O)(=O)c2ccc(Br)cc2)c(C)c1 | 4% | ? | . | 14%
Cc1ccc(S(=O)(=O)NCCN2CCN(S(=O)(=O)c3ccccc3Cl)CC2)cc1 | . | 0.4% | . | -11%
C=CCn1c2ccccc2c2nnc(SCC(=O)NC(C(=O)OC)C(C)C)nc21 (stereo not given) | -1% | 0.3% | 4 | -3%
CC12CCC(O)CC1=CCC1C2CCC2(C)C(c3ccn[nH]3)CCC12 (stereo not given) | . | -0.8% | . | -9%
CSCC[C@H](N)C(=O)NC[C@H]1CC[C@H](C(=O)N[C@@H](Cc2ccccc2)C(=O)O)CC1 | -1% | 0.2% | . | 15%
COc1ccccc1C1NC(=O)NC(C)=C1C(=O)OCc1ccccc1 (stereo not given) | 1% | 1.2% | . | -15%
COc1ccc2cc(C(=O)N3CCCC(Nc4ccc(F)cc4)C3)n(C)c2c1 (stereo not given) | -4% | 0.5% | . | 12%
COC1CCCN(Cc2cn(C)nc2-c2ccc(Oc3ccccc3)cc2)C1 (stereo not given) | -4% | -0.3% | -7 | -5%

# The list goes on.
canonical_smiles | miR-21 reporter | Rango-impB inh | GLA inh pH 4.5 | Rango release inh
Cc1cc(C)nc(Nc2ccc(Cl)cc2C)n1 | 0% | -3.9% | . | 8%
COc1ccccc1CN1CCCCCC1 | 5% | 1.3% | . | 11%
O=C(Nc1ccc(Oc2ccc(Br)cc2)cc1)C1=CC=CN2CCS(=O)(=O)N=C12 | . | -2.8% | . | -5%
COc1ccc2c(c1)CC/C(=C/c1cc(OC)c(OC)c(OC)c1)C2=O | 11% | -1.9% | -10 | -1%
O=C1c2ccccc2C(=O)N1CCc1nc(-c2ccccn2)no1 | -16% | -1.5% | 2 | 1%
COc1ccc(C(=O)C2CCCN(C(=O)c3ccnn3C)C2)c(C)c1 (stereo not given) | 1% | 1.2% | . | -4%
Cc1ccc(C2/C(=C(\O)c3ccc4c(c3)OCCO4)C(=O)C(=O)N2CCCN(C)C)o1 (stereo not given) | -17% | . | -2 | .
O=C(O)CCCCCN=C1CCc2ccccc2N1 | 1% | -0.7% | . | 2%
C[C@H]1CN=C(N(C)C)N1CCC1CCCCC1 | . | 1.9% | . | -15%
N#Cc1cccc(CN2CCC(=O)N([C@H](CO)Cc3ccccc3)CC2)c1 | 0% | 0.1% | . | -1%
Cc1ccc(NC(=O)CC2SC(=NC3CCCCC3)NC2=O)cc1 (stereo not given) | -3% | 4.3% | 5 | 7%
CN(C)/C=C1\N=C(c2ccc3c(c2)OCO3)OC1=O | -41% | -0.8% | -5 | -9%
